# Mtb H37Rv – Mycobacterium tuberculosis H37Rv growth inhibition, cell based, confirmatory dose response (AID 1949). most inactive calls were filed without a number and no value below 0 was filed. inhibition, % at 10 µg/mL; hits with a dose series show IC50 in µg/mL. hit rate 1.6% among 100,000;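 active means confirmed in a dose series; inconclusive means about 50% or more but not retested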;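 further: bacteria grown 7 days with compound before Alamar blue readout; 0% = untreated bacteria and 100% = reference antibiotic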
# * marks the source's active call; other numbers are inactive results; i = inactive; ? = inconclusive.
SMILES,Mtb H37Rv
O=c1c2nc3ccccc3n2c(=O)n2c1nc1ccccc12,i
Cc1cc(C)cc(N(CC(=O)NC2CCCCCC2)S(=O)(=O)c2ccccc2)c1,4%
COc1ccccc1N1CCN(C(=O)COc2ccc(S(=O)(=O)NCC(C)C)cc2C)CC1,2%
Cc1ccc(S(=O)(=O)c2nc(C)oc2NCc2ccccc2)cc1,i
COc1ccc(NC(=O)C(C)N2C(=O)C3CC=C(Cl)CC3C2=O)cc1 (stereo not given),i
CCn1c(SCC(=O)Nc2ccc(C)c(C)c2)nnc1-c1cc2cccc(OC)c2o1,i
O=C(Nc1cnccn1)c1csc2ccccc12,i
Cn1c(=O)c2c(nc(SCc3nn[nH]n3)n2C)n(C)c1=O,i
CC(=O)Nc1ccc(NC(NC(=O)c2cccc(I)c2)C(Cl)(Cl)Cl)cc1 (stereo not given),0%
CCOc1ccc(C(=O)NC(=S)Nc2cc3nn(-c4ccc(C)cc4)nc3cc2Cl)cc1,i
Cc1ccc(SCc2[nH]nc3c2C(C(C)C)C(C#N)=C(N)O3)cc1 (stereo not given),i
CCCOc1ccc(-c2nc(=S)[nH][nH]2)cc1,i
CCc1cccc(C)c1NC(=O)c1ccc(N2CCCC2)c([N+](=O)[O-])c1,i
O=C(Nc1ccc(Cc2ccncc2)cc1)c1cc(I)ccc1Cl,11%
CCOC(=O)c1ccc2nc(C)cc(Nc3cc(Cl)ccc3OC)c2c1,0%
CCCCNC(=S)NC1CCCC1,i
Cc1ccc(OC(=O)C23CC4CC(CC(C4)C2)C3)c(C)n1,13%
CCCC1CCc2c(sc(NC(=O)CC(C)C)c2C(N)=O)C1 (stereo not given),2%
CCOc1ccc(NC(=O)CC2C(=O)N(c3ccc(OCC)cc3)C(=S)N2C2CC2)cc1 (stereo not given),i
Cc1ccc(OCC(O)Cn2c(=N)n(C)c3ccccc32)cc1 (stereo not given),3%
O=S(=O)(NCCCn1ccnc1)c1ccc(I)cc1,1%
Cc1cc(C)nc(NC2=NCCN2C(=O)NC2CCCCC2)n1,i
Cc1cc(C)cc(C(=O)O/N=C(\N)c2ccc(Cl)cc2)c1,i
Cn1c(=O)c2c(nc(SCCCC#N)n2Cc2cccc(Cl)c2)n(C)c1=O,5%
CC1(C)OC(=O)CC1C(=O)NCc1ccccc1 (stereo not given),i
C=CCc1cc(Cl)ccc1OCCCCn1ccnc1,2.1µg/mL*
CN(C)CCCNC(=S)NC(=O)c1ccccc1,i
O=C(Nc1ccc(F)cc1)Nc1ccc2c(c1)OCCO2,i
O=C(O)CCS(=O)(=O)c1cccc2cccnc12,i
Cc1ccc(SCCC(=O)Nc2ccccc2C(F)(F)F)cc1,3%
COc1c(F)c(F)c(-c2csc(N)n2)c(F)c1F,i
COC(=O)c1c(N)sc(C(=O)NCCc2ccccc2)c1C,i
CCc1ccc(OCC(=O)N2CCN=C2c2ccccc2)cc1,i
O=C1c2ccccc2NC2(CCCCC2)N1c1ccc(O)cc1,i
CCOc1ccc(NS(=O)(=O)c2ccc(NC(=O)C(c3ccccc3)c3ccccc3)cc2)cc1,i
O=C(c1ccccc1)c1ccc(OC(=O)N2CCCC2)cc1,1%
CCCc1nnc(NC(=O)c2sc3ccccc3c2Cl)s1,i
CC(C)NS(=O)(=O)c1cc(C(=O)O)ccc1Br,i
COc1ccc2nc(NC(=O)Cn3cnc4c(=O)n(C)c(=O)n(C)c43)sc2c1,0%
Cc1cccc(-n2nc([N+](=O)[O-])c(=NCCC3=CCCCC3)n2O)c1,3.6µg/mL*
COc1ccccc1CC(=O)O/N=C(\N)Cc1ccc(Cl)cc1Cl,i
CC(C)(C)c1ccc(C(=O)Nc2ccc(N3CCN(Cc4ccccc4F)CC3)cc2)cc1,i
O=S(=O)(NCc1ccc(F)cc1)c1cccs1,i
COC(=O)c1cc(N/C(N)=N\c2nc(C)cc(C)n2)cc(C(=O)OC)c1,i
O=C(CC12CC3CC(CC(C3)C1)C2)Nc1ccc(F)cc1,5%
O=C(O)c1ccc(Cl)c(NC(=S)NC(=O)c2ccc(-c3ccccc3)cc2)c1,i
Cc1cc(C)nc(Nc2cccc(O)c2)n1,i
CCCCn1c(CCC)nc2c(=O)n(C)c(=O)[nH]c21,i
N#CCc1ccc(NC(=O)COc2ccc3c(c2)CCC3)cc1,i
O=c1cc(-c2ccc(Br)cc2)oc2ccccc12,5%
Cc1cccc(NC(=O)CSc2nc3ccc(NC(=O)c4ccc([N+](=O)[O-])cc4)cc3s2)c1,i
CCNc1cc(Nc2ccc(OC)cc2)c([N+](=O)[O-])c2nonc12,i
COc1ccc(OCCSc2nnc(CCNC(=O)c3ccc(Cl)c(Cl)c3)n2C)cc1,i
COC(=O)c1c(-c2ccc(C)cc2)csc1NC(=O)c1cc(Cl)ccc1OC,i
CCC(=O)Nc1ccc(C(=O)OC(c2ccccc2)c2ccccc2)cc1,12%
Cn1c(=O)c2cn3c4ccccc4nc(COc4ccccc4)c3c2n(C)c1=O,i

# (cont.)
SMILES,Mtb H37Rv
CCn1c(SCC(=O)Nc2ccccc2F)nnc1-c1ccc(Br)cc1,i
O=C(Nc1ccc(Cl)cc1C(F)(F)F)c1ccccc1Br,i
O=C(CN1C(=O)c2ccccc2C1=O)Nc1ccc(S(=O)(=O)N2CCCCC2)cc1,i
Cc1ccc(C)c(NC(=O)C(CC(=O)O)C2CCCO2)c1 (stereo not given),i
S=C(Nc1ccc2c(c1)OCO2)Nc1cnccn1,?
O=C(Nc1ccc(CN2CCCCC2)cc1)c1ccc(Br)o1,i
COc1ccc(S(=O)(=O)NCCC2=CCCCC2)cc1C,i
CC(=O)c1nc(N2C(=O)CC(Cc3ccc(C)cc3)C2=O)sc1C (stereo not given),i
COc1ccc(NC(=O)CC(c2ccc(C)cc2)c2ccco2)cc1 (stereo not given),i
COc1ccc(C(F)(F)F)cc1NC(=O)c1cnn2c(C(F)F)cc(-c3ccccc3)nc12,1%
Cc1ccc(Cl)cc1NC(=O)CSCC#N,9%
COc1ccc(S(=O)(=O)N(CCc2ccccc2)CC(N)=O)cc1C,i
Cc1ccc(-c2nc(SCC(=O)c3ccc(Cl)cc3)[nH]c(=O)c2C#N)cc1,i
O=C(CC12CC3CC(C1)CC(c1ccccc1)(C3)C2)NC1=NCCS1,38%
CCC(=O)Nc1ccc(Cl)c(NC(=S)NC(=O)c2cccs2)c1,9%
O=Cc1cn(CCC(=O)O)nc1-c1cccc(Cl)c1,i
NC(=O)c1ccc(NC(=O)COc2ccc(Cl)cc2Br)cc1,i
CC1(C)NC(=O)N(CCOc2ccccc2Cc2ccccc2)C1=O,2%
COc1ccc(-c2nnc(SCC(=O)Nc3cc(Cl)ccc3C)o2)cc1,i
CCOc1ccccc1N1CCN(C(=O)Nc2ccccc2C(F)(F)F)CC1,i
O=[N+]([O-])c1ccc(NC(=S)N2CCN(Cc3ccc(Cl)c(Cl)c3)CC2)cc1,i
CC1=CC(C)(C)Nc2ccc(OC(=O)c3cccnc3)cc21,2.9µg/mL*
CCOc1ccc(-c2nc3ccc(C)cc3[nH]2)cc1,?
O=C1CC(N2CCN(c3nc4ccccc4s3)CC2)C(=O)N1Cc1cccs1 (stereo not given),i

# (more compounds)
compound,Mtb H37Rv
COc1cc(C(=O)Nc2cccc(C(F)(F)F)c2)c(Br)c(OC)c1OC,i
CCOc1cc(CO)ccc1OCC(=O)Nc1cccc(C(F)(F)F)c1,4%
O=C(NC(=S)NCc1cccnc1)c1cccs1,5%
O=C1C=C2c3ccccc3CC3(CCCC3)N2C1=O,12%
Cc1ccccc1OCC(O)Cn1c(=N)n(C)c2ccccc21 (stereo not given),4%
CCOC(=CNc1ccc2nsnc2c1)OCC,i
CC1=[N+]([O-])C(C)(C)C(c2ccc(Cl)cc2)=[N+]1[O-],i
COC(=O)c1ccc2c(=O)n(Cc3ccc4c(c3)OCO4)c(=S)[nH]c2c1,i
Cc1ccc(SCc2cc(=O)[nH]c(Nc3nc(C)c4cc(C)ccc4n3)n2)cc1,i
CCOc1cc(C(N)=O)ccc1OCc1ccccc1,1%
O=C(Nc1ccccc1N1CCCCC1)c1cccc(Br)c1,i
O=C(Nc1ccncc1)c1ccc(-n2nc(C(F)(F)F)c3c2CCCC3)cc1,5%
Cc1ccc2c(c1)c1nc3ccccc3nc1n2C,i
CS(=O)(=O)N(CC(=O)Nc1ccccc1-c1ccccc1)c1ccc(Cl)cc1,3%
Cc1nc2ccccc2c(=O)n1NC(=O)c1c(O)c2ccccc2n(C)c1=O,i

# Rewritten field by field: part of the list above.
canonical_smiles: O=C(NC(=S)NCc1cccnc1)c1cccs1
  Mtb H37Rv: 5%
canonical_smiles: CC1=[N+]([O-])C(C)(C)C(c2ccc(Cl)cc2)=[N+]1[O-]
  Mtb H37Rv: i
canonical_smiles: O=C(Nc1ccncc1)c1ccc(-n2nc(C(F)(F)F)c3c2CCCC3)cc1
  Mtb H37Rv: 5%
canonical_smiles: Cc1nc2ccccc2c(=O)n1NC(=O)c1c(O)c2ccccc2n(C)c1=O
  Mtb H37Rv: i

# The main list resumes, repeating the two entries before the break.
compound,Mtb H37Rv
CS(=O)(=O)N(CC(=O)Nc1ccccc1-c1ccccc1)c1ccc(Cl)cc1,3%
Cc1nc2ccccc2c(=O)n1NC(=O)c1c(O)c2ccccc2n(C)c1=O,i
O=C(Nc1cc2nn(-c3ccccc3)nc2cc1Cl)c1ccc(F)cc1,i
COC(=O)c1ccccc1NC(=O)c1c(NC(=O)CN2CCCCCC2)sc2c1CCC2,11%
NC(=O)CCS(=O)(=O)c1ccccc1,i
COc1ccc(-c2csc(NC(=O)c3cccnc3)n2)cc1Br,i
CCc1ccccc1OCCOCCNCCO,i
O=C(CSc1nnc(Cc2ccccc2)o1)Nc1ccc(Br)c(Cl)c1,i
C=CCSC1=C(C#N)C(c2ccc(OC)cc2)CC(=O)N1 (stereo not given),i
COC(=O)c1cc(NC(=O)CSc2nc(C)cc(=O)[nH]2)cc(C(=O)OC)c1,i
COc1ccc(CC(=O)NC(=S)Nc2ccc(S(=O)(=O)NC3CCCCC3)cc2)cc1,i
COc1cc(OC)c(OC)cc1CN1CCN(Cc2ccc(SC)cc2)CC1,i
COc1cccc(OC(=O)c2ccc(F)cc2[N+](=O)[O-])c1,i
CCOc1ccc(S(=O)(=O)N(CC(=O)NCc2ccccn2)c2ccc(C)cc2)cc1,i
CC(NC(=O)c1ccccc1NC(=O)CSc1ccccc1)c1ccccc1 (stereo not given),i
O=C(N1CCCCC1)N1CCN(c2cc(Cl)ccc2Cl)CC1,3%
Cc1ccc(OCCN2CCCC2)c(Br)c1,i
CCCCc1ccc(NC(=O)C(=O)NCc2ccccc2C)cc1,i
O=C(Nc1ccc(-c2nc3ncccc3o2)cc1)c1cc2ccccc2o1,3%
CC(C(=O)N1CCOCC1)N(c1ccc(Cl)cc1)S(C)(=O)=O (stereo not given),i
Cc1ccccc1C(=O)NC1CCS(=O)(=O)C1 (stereo not given),i
COc1ccc2nc(/C(C#N)=C\c3ccc(SC)cc3)[nH]c2c1,7.6µg/mL*
CCCC1=C(C(=O)OCC)C(c2ccccn2)C2=C(CC(c3ccccc3)C(C(=O)OCC)C2=O)N1 (stereo not given),i
Cc1ccc(-c2cc(C(=O)N3CCCc4ccccc43)no2)cc1,9.3µg/mL*
CC(=O)N(C)c1ccc(NC(=O)Nc2cccc(Cl)c2)cc1,i
O=C(NC(=S)Nc1ccc(N2CCCC2)cc1)c1cccc2c(Br)cccc12,i
CCN1CCN(c2c(Cl)cccc2NC(=O)c2ccco2)CC1,i
Fc1ccc(CNC(=S)NCc2cccnc2)cc1,i
COc1cc(OC)c(NC(=O)COc2ccccc2C)cc1Cl,i
O=[N+]([O-])c1c(-n2cccn2)nn(-c2ccccc2)c1C(Cl)Cl,3.1µg/mL*
CCOC(=O)c1c(NC(=O)c2ccc(OC)c(OC)c2)sc2c1CCCCCC2,i
CCOc1cc(C#N)ccc1OCCOc1ccccc1Cl,i

# By substructure: the compounds so far with a nitro group on carbon (seven)
compound,Mtb H37Rv
CCc1cccc(C)c1NC(=O)c1ccc(N2CCCC2)c([N+](=O)[O-])c1,i
Cc1cccc(-n2nc([N+](=O)[O-])c(=NCCC3=CCCCC3)n2O)c1,3.6µg/mL*
Cc1cccc(NC(=O)CSc2nc3ccc(NC(=O)c4ccc([N+](=O)[O-])cc4)cc3s2)c1,i
CCNc1cc(Nc2ccc(OC)cc2)c([N+](=O)[O-])c2nonc12,i
O=[N+]([O-])c1ccc(NC(=S)N2CCN(Cc3ccc(Cl)c(Cl)c3)CC2)cc1,i
COc1cccc(OC(=O)c2ccc(F)cc2[N+](=O)[O-])c1,i
O=[N+]([O-])c1c(-n2cccn2)nn(-c2ccccc2)c1C(Cl)Cl,3.1µg/mL*

# Other results follow.
compound,Mtb H37Rv
Cc1ccccc1CN(c1ccc(C(=O)N2CCc3ccccc3C2)cc1)S(C)(=O)=O,i
O=C(CN1C(=O)c2cccc3cccc1c23)Nc1ccccc1C(F)(F)F,i
CCN(CC)C(=O)COc1ccc(-c2nnc(Nc3ccc(OC)cc3)c3ccccc23)cc1,i
COC(=O)CCN(C(=O)c1ccc(C(C)(C)C)cc1)c1ccccn1,i
COc1cc(OC)cc(-c2n[nH]c(=S)n2-c2ccccc2C)c1,i
CCOC(=O)C1CCCN(C(=O)C2CCCCC2)C1 (stereo not given),8%
CCn1c(NC(=S)Nc2ccccc2)nc2ccccc21,i
CC1CC(C(F)F)n2nc(C(=O)Nc3ccc(Br)cc3F)nc2N1 (stereo not given),4%
O=S(=O)(Cc1ccccc1)N1CCN(Cc2ccco2)CC1,i
O=C(Oc1ccccc1[N+](=O)[O-])N(c1ccccc1)c1ccccc1,3%
N#Cc1nc(-c2ccccc2Cl)oc1N1CCN(c2ccccc2)CC1,2%
O=C(CSc1nnnn1-c1ccccc1)Nc1ccc(Oc2ccc(Cl)cc2)cc1,i
CS(=O)(=O)N(CC(=O)NCCC1=CCCCC1)c1cccc(C(F)(F)F)c1,i
O=S(=O)(c1ccc(NC(=S)NC2CCCCC2)cc1)N1CCOCC1,i
Cc1ccc(NS(=O)(=O)c2ccc(NC(=O)COc3ccc([N+](=O)[O-])cc3)cc2)cc1C,i
CCOc1ccccc1N1CCN(C(=O)c2ccc(Cl)c(Cl)c2)CC1,i
CCOC(=O)N1CCc2c(sc(NC(C)=O)c2C(=O)Nc2cc(OC)ccc2OC)C1,i

# Compound activity from PubChem BioAssay.

# Some of the compounds tested (hit frequency here may not be typical).
